From PubChem
T cruzi repl – T. cruzi replication inhibition; 300,000 tested, 1.4% active; T. cruzi beta-gal in NIH3T3, luminescence, 90 h; inhibition, % (concentration not given with the values); AID 1885;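 active = mean inhibition across valid replicates above about 55%, limit read from the data; inconclusive = mean below that limit but half or more replicates reach it; inactive = mean below it, under half of replicates reach it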;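 note: signal also drops with host cell toxicity which is not excluded here; 0% = plate median of DMSO wells and 100% = zero luminescence signal; higher percent means less beta-gal luminescence so fewer parasites; stock transfer was 50 nL into about 50 µL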
B2AR ag – agonists of human beta-2 adrenergic receptor inducing internalization; response, % (concentration not given with the values); P07550; Am2.2-beta2AR cells, FAP receptor internalization, flow cytometry; reference of the scale not given here; 340,000 tested, 0.43% active; AID 504454;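 active = response above a set limit, near 3 SD of response in nonfluorescent compounds, cut at about 42% in these data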;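 note: stock transfer was 100 nL into about 11 µL; a reference agonist was the positive control; negative values mostly stem from fluorescent compounds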
Target sequence (P07550 whole entry, looked up): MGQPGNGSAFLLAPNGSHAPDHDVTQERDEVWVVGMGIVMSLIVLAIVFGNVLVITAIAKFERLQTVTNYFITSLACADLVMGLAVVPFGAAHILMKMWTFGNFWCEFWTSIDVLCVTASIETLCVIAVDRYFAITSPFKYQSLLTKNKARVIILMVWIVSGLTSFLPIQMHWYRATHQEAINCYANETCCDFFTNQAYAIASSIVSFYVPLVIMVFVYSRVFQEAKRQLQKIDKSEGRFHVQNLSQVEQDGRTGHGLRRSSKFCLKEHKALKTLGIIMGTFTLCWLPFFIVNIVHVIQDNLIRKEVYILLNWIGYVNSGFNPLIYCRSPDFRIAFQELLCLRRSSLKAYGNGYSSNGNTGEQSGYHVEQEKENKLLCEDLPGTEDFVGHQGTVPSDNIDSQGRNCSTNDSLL
Calb FLC – C. albicans growth modulation with fluconazole | C. albicans CaCi-2 (fluconazole-resistant clinical isolate) + fluconazole, Alamar Blue growth, 48 h | 300,000 tested, 0.57% active | growth inhibition, % (no concentration beside the values);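 active = most replicates above 75%; inconclusive = exactly half above 75%; inactive = most below 75%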;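 note: all wells also contain fluconazole at 8 µg/ml as a sub-toxic cotreatment; 0% = median of DMSO wells and 100% = median of geldanamycin control wells; wells of about 8 µL received 7.5 nL stock; the first replicate is given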
LANA-H2B inh – blocks KSHV LANA binding to histone H2A/H2B; inhibition, % (no concentration beside the values); Q9QR71; 320,000 tested, 0.6% active; cell-free LANA-H2A/H2B peptide, fluorescence polarization; AID 2629; in the data active = inhibition mostly above about 10%, no sharp cut-off; inactive = mostly below about 6.7%;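 note: stock transfer was 7.5 nL into about 10 µL; 0% = median of vehicle wells and 100% = median of positive control wells; one replicate is shown; the record names a cut of 25% in any replicate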
rRNA inh HTS – selective bacterial rRNA inhibition in E. coli | E. coli WT GFP vs humanized-ribosome RFP mutants, fluorescence, 24 h; hits give low values; DMSO median 0, no signal -100 | GFP signal change (wild-type ribosome), % (concentration not given with the values) | 350,000 tested, 1.6% active;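 active = significant combined selectivity score with lowered wild-type GFP, culture density cut under 30%, mutant RFP and density less affected; inactive = any of these conditions unmet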; note: one replicate is shown; some compounds called inactive have numbers as strong as hits
ALR inh – human ALR oxidase inhibition via reduced H2O2; purified ALR, DTT oxidation, H2O2 HRP-luminol luminescence; AID 485317; inhibition, % (concentration not given with the values); 290,000 tested, 3.8% active;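 active = mean and each replicate at 75% or more; inconclusive = only one of the two met; inactive = neither met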;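 note: stock transfer was 7.5 nL into about 7.5 µL; 0% = neutral wells and 100% = wells with inactivated enzyme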
Target sequence (P55789 whole entry, looked up): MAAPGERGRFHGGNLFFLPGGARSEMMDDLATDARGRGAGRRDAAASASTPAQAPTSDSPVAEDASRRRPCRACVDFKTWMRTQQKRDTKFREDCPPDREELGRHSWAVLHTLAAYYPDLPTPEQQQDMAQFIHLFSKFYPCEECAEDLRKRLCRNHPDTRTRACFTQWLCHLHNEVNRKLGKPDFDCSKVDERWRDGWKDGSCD
Beta cell apopt – blocks beta cell apoptosis. INS-1E cytokine-induced death, ATP luminescence, 48 h; percent of positive-control rescue, neutral wells zero. protection from apoptosis, % (concentration not given with the values). 300,000 tested, 0.8% active. AID 435005;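 active = all replicates at 75% or more, or half of them and the mean; inconclusive = half reach 75% but not the mean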;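 note: 0% = cytokine-treated negative control wells and 100% = positive control rescue; higher means more ATP so stronger rescue from cytokine killing; wells of about 40 µL received 100 nL stock; the first replicate is given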
A1 inh – inhibitors of the anti-apoptotic protein A1, read as caspase activation; caspase activation, % (test concentration not listed); MEF A1-2A-BIM cells, Caspase-Glo 3/7 luminescence, 3 h; percent of clofoctol response, vehicle zero; 330,000 tested, 0.066% active; AID 2462;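 active = over half of replicate activation scores above 10%, or exactly half above 10 with the replicate mean above 10; inconclusive = replicate mean below 10 yet half the replicates above 10; inactive = over half of replicates below 10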;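 note: wells of about 30 µL received 50 nL stock; many hits fall short of the cut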
rRNA inh HTS OD600 – second read-out of rRNA inh HTS, no call of its own (marks repeat the call); OD600 change, %; measured here: OD600 growth;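 optical density of the mix in the first replicate; 0 = DMSO median and -100 = no signal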
rRNA inh HTS RFP – also measured in rRNA inh HTS; calls as there; RFP signal change, %; measured here: RFP humanized mutant strains;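 first replicate; 0 = DMSO median and -100 = no signal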
Active calls of the source: *; ? = inconclusive; / = not tested or not shown.

entry	molecule	T cruzi repl	B2AR ag	Calb FLC	LANA-H2B inh	rRNA inh HTS
1	CC(=O)NCCC(=O)Nc1nc2ccc(Oc3ccccc3)cc2s1	12	-11	30	-0.3	-4
2	Cc1sc(NC(=O)C2=COCCO2)nc1-c1ccc(Cl)cc1	9	5	4	-5.9	3
3	COc1ccc(S(=O)(=O)N2CCN(c3cc(-c4ccccc4)nc4ncnn34)CC2)cc1	28	4	20	21	13
4	COC(=O)Cn1c(CN2CCOCC2)nc2c1c(=O)[nH]c(=O)n2C	3	6	6	-1.4	2
5	O=C1NCC(O)=C1C=NCCO	-13	-2	-4	-1.3	/
6	CN1CC[n+]2cnc3ccccc3c21	-8	1	-18	2.5	/
7	CCn1c(C)c(C)c2cc(C(=O)N3CCN(c4cccc(C)c4C)CC3)ccc21	27	5	-4	3.6	13
8	CC1CCc2c(sc3nc(CSc4ncn[nH]4)[nH]c(=O)c23)C1 (stereo not drawn)	16	-15	-9	1.9	/
9	COc1cc(NC(=O)c2ccc(C(C)(C)C)cc2)c(OC)cc1NC(=O)CN1CCCCC1	51	30	5	3.6	-5
10	COc1ccc(C(=O)Nc2cc(Cl)ccc2Cl)c(OC)n1	5	2	?	3.8	/
11	CC(=O)c1ccc(OCC(C)C)c(CC(C(N)=O)C(N)=O)c1	1	-1	10	0.9	8
12	Cc1[nH][nH]c(=O)c1N=Nc1ccccc1Cl	15	4	-2	0.3	8
13	COc1ccc(C(=O)NC(=S)NNC(=O)c2cnccn2)cc1	22	11	118*	-4.3	/
14	CC(C)(C)NC(=O)/C(=C/c1ccccc1F)NC(=O)c1ccc([N+](=O)[O-])cc1	-4	1	-1	-2.0	13
15	CC(=O)/C=C(\C)N=Nc1c(O)[nH]c2ccccc12	8	-6	-6	1.1	-13

entry	rRNA inh HTS OD600	rRNA inh HTS RFP	ALR inh	Beta cell apopt	A1 inh
1	-31	-0.2	-6	1	-0.9
2	6	-0.3	3	4	-0.4
3	10	-8.3	-3	39	-0.1
4	-3	5.0	-33	0	0.1
5	/	/	-8	-1	?
6	/	/	-3	-4	0.9
7	-10	8.2	-4	-11	0.3
8	/	/	61	-4	-1.5
9	-1	-1.9	1	17	0.0
10	/	/	-5	0	0.0
11	-1	1.0	-1	/	-0.9
12	13	-0.6	-5	/	-3.5
13	/	/	-7	77*	0.4
14	12	1.9	-12	-5	0.4
15	2	1.2	-9	4	-1.8

Shown as labelled records: part of the list above.
[2] Cc1sc(NC(=O)C2=COCCO2)nc1-c1ccc(Cl)cc1
  T cruzi repl: 9; B2AR ag: 5; Calb FLC: 4; LANA-H2B inh: -5.9; rRNA inh HTS: 3; rRNA inh HTS OD600: 6; rRNA inh HTS RFP: -0.3; ALR inh: 3; Beta cell apopt: 4; A1 inh: -0.4
[3] COc1ccc(S(=O)(=O)N2CCN(c3cc(-c4ccccc4)nc4ncnn34)CC2)cc1
  T cruzi repl: 28; B2AR ag: 4; Calb FLC: 20; LANA-H2B inh: 21; rRNA inh HTS: 13; rRNA inh HTS OD600: 10; rRNA inh HTS RFP: -8.3; ALR inh: -3; Beta cell apopt: 39; A1 inh: -0.1
[4] COC(=O)Cn1c(CN2CCOCC2)nc2c1c(=O)[nH]c(=O)n2C
  T cruzi repl: 3; B2AR ag: 6; Calb FLC: 6; LANA-H2B inh: -1.4; rRNA inh HTS: 2; rRNA inh HTS OD600: -3; rRNA inh HTS RFP: 5.0; ALR inh: -33; Beta cell apopt: 0; A1 inh: 0.1

(further entries)
entry	molecule	T cruzi repl	B2AR ag	Calb FLC	LANA-H2B inh	rRNA inh HTS
16	CC(Sc1nnc(-c2cccnc2)n1C)C(=O)N1CCOCC1 (stereo not drawn)	-3	7	5	3.8	18
17	COc1ccc(CCNC(=O)Cc2ccc([N+](=O)[O-])cc2)cc1OC	3	5	2	3.4	-3
18	Cc1c(CNC(=O)c2c([N+](=O)[O-])cnn2C)cnn1C	-5	2	2	-0.8	18
19	CC(=O)N1N=C(c2c(-c3ccccc3)c3cc(Br)ccc3[nH]c2=O)CC1c1ccco1 (stereo not drawn)	9	5	15	1.7	-2
20	O=C(NNC(=O)c1ccccc1Cl)c1ccc(-n2cncn2)c([N+](=O)[O-])c1	/	4	/	-3.3	-6
21	CCc1ccc(NC(=O)c2cc(-c3ccc(OC)cc3)on2)cc1	-73	-2	19	-2.3	16
22	Cc1ccc(C)c(N2CCN(Cc3nnnn3C3CCCCC3)CC2)c1	20	0	-8	-2.5	/
23	NS(=O)(=O)c1cccc(NC(=O)CCCNC(=O)c2ccc(Cl)cc2)c1	-8	1	-7	3.3	2
24	CCOC(=O)c1nc2sc3c(c2c(=O)n1C(C)C(=O)OCC)CCCC3 (stereo not drawn)	7	2	-9	-0.6	-30
25	Cc1cc(C)c(S(=O)(=O)Cc2ccc(Cl)cc2)c(=O)[nH]1	4	-1	-1	-2.2	8
26	CCOC(=O)C1C(=O)CC(C)(O)C(C(=O)OCC)C1c1ccc2c(c1)OCO2 (stereo not drawn)	9	-6	-6	178*	/
27	Cc1cccc(C(=O)NCCNC(=O)c2cnccn2)c1	-2	2	-13	-9.0	4
28	O=C(O)C1=CC[C@@H](c2ccc(Cl)cc2)N(S(=O)(=O)c2ccc(Cl)cc2)C1	/	-4	/	7.5	-40
29	COC(=O)c1scc2c(=O)cc(C(F)(F)F)[nH]c12	1	-8	-9	0.0	9
30	Clc1nc(CN2CCCCC2)nc2sc3c(c12)CCCC3	2	10	25	2.1	-45

entry	rRNA inh HTS OD600	rRNA inh HTS RFP	ALR inh	Beta cell apopt	A1 inh
16	14	2.1	3	-4	-0.4
17	7	-3.8	-4	-6	1.0
18	13	0.9	10	-5	0.4
19	-20	2.5	3	-8	-0.7
20	1	1.0	-9	-8	0.4
21	10	-11	-2	0	0.7
22	/	/	-2	5	0.1
23	16	-3.9	-8	0	-0.2
24	-41	-3.2	0	4	0.1
25	8	1.7	2	-5	1.4
26	/	/	-9	-2	-0.2
27	6	-1.7	-2	1	0.2
28	-40	-20	2	-1	0.4
29	17	-0.2	3	-24	-0.2
30	-68	-9.7	19	-7	0.1

The list goes on.
entry	molecule	T cruzi repl	B2AR ag	Calb FLC	LANA-H2B inh	rRNA inh HTS
31	Cc1ccc(CNC(=O)CCCNC(=O)c2ccc(Cl)cc2)n1C	-6	-2	5	3.2	/
32	CC1=NN(C(=O)CSCc2ccccc2)C(O)(c2ccccc2)C1 (stereo not drawn)	-7	2	-3	-1.7	18
33	OC(CN1CCCCC1)Cn1c(C(F)(F)F)nc2ccccc21 (stereo not drawn)	-13	-1	1	-4.0	/
34	Cc1cc(C(=O)Nc2ccc([N+](=O)[O-])cn2)cs1	-13	-4	8	1.3	21
35	COc1ccc(C(=O)OCc2c(-c3cccc(OC)c3)ncc3ccccc23)cc1	/	-4	/	-2.0	0
36	COc1cc(CNc2ccc3[nH]c(=O)[nH]c3c2)cc(Br)c1OCc1ccccc1F	24	-5	-4	5.0	-19
37	COC(=O)c1cccnc1-n1c(=O)c2cccnc2n(Cc2ccc([N+](=O)[O-])cc2)c1=O	0	-6	8	-4.3	2
38	O=C(COC(=O)c1n[nH]c2ccccc12)Nc1ccc(S(=O)(=O)N2CCCC2)cc1	/	1	/	1.4	/
39	C[C@@H]1C=C[C@](Cc2ccccc2)(C(=O)O)N1C(=O)c1ccccc1	-13	-5	-6	1.0	2
40	CC1CCN(S(=O)(=O)c2ccc3c(c2)N(CC(=O)NCCCN2C(C)CCCC2C)C(=O)CO3)CC1 (stereo not drawn)	13	1	-2	-4.4	-4
41	COc1cc2ccccc2cc1C(=O)N1CCN(c2ccccn2)CC1	2	10	-11	-1.9	6
42	O=C(NCCSCc1ccccc1)c1ccc(Cl)c(S(=O)(=O)N2CCOCC2)c1	8	5	3	0.2	/
43	NS(=O)(=O)c1ccc(N/N=C2/CCCCC2C2CCCCC2)c([N+](=O)[O-])c1 (stereo not drawn)	40	33	15	-1.9	/
44	COc1cc(-c2nc3n(n2)C(c2ccc(F)cc2)C2=C(CCCC2=O)N3)cc(OC)c1OC (stereo not drawn)	26	-13	-5	-0.2	-27*
45	COc1ccccc1C(=O)OCC(=O)NCCNC(=O)COC(=O)c1ccccc1OC	-1	-7	-11	-2.9	11

entry	rRNA inh HTS OD600	rRNA inh HTS RFP	ALR inh	Beta cell apopt	A1 inh
31	/	/	-3	-1	-1.0
32	30	2.1	12	-3	-0.6
33	/	/	-1	0	-0.7
34	19	2.7	-4	/	-6.5
35	-4	-9.7	-4	-1	1.7
36	-19	-2.3	23	-9	0.3
37	0	-7.4	/	-10	0.0
38	/	/	-16	9	-0.3
39	7	-4.3	0	0	0.1
40	8	-1.6	-3	0	-1.0
41	2	1.0	-2	-8	0.2
42	/	/	-3	-6	0.4
43	/	/	-25	76*	3.0
44	-15*	-0.2*	11	-5	0.8
45	18	-0.7	-7	-9	-0.1

Next section:
entry	molecule	T cruzi repl	B2AR ag	Calb FLC	LANA-H2B inh	rRNA inh HTS
46	CNC(=O)c1ccccc1NC(=O)c1cccc(S(=O)(=O)N2CCCCC2)c1	8	1	-1	-3.9	9
47	CC(=O)NC(Cc1ccc(F)cc1)C(=O)O (stereo not drawn)	-10	4	-3	-0.4	/
48	O=C(NNC(=O)c1ccc[nH]1)Nc1cc(Cl)cc(Cl)c1	6	4	-13	16	-8
49	COc1ccc(-n2nc(C(=O)NCC(=O)NCCN(C)C)c3ccccc3c2=O)cc1	0	3	-6	-0.8	6
50	COc1ccc(Cn2nnc3c(=O)[nH]c(C4CCCN(C(=O)c5ccccc5)C4)nc32)cc1 (stereo not drawn)	-3	-1	-16	-0.3	-2
51	Cc1cc(C)n(CC(O)COc2ccccc2[N+](=O)[O-])n1 (stereo not drawn)	-15	-8	-8	-1.8	/
52	Cc1cccc(OCC(=O)Nc2nnn(C)n2)c1C	-4	-2	-5	0.7	/
53	COc1ccccc1NC(c1cccnc1)c1ccc2cccnc2c1O (stereo not drawn)	40	1	82*	8.8	/
54	COc1ccc(CCNC(=O)C2CCCN(S(=O)(=O)c3ccc(F)cc3)C2)cc1OC (stereo not drawn)	-1	10	9	-0.6	2
55	CCOc1ccccc1C(=O)NCC(=O)NCC(c1ccco1)N1CCCCC1 (stereo not drawn)	-5	-11	-7	-6.3	5
56	COc1ccc(CCC(=O)NC2CCC(C)CC2)cc1 (stereo not drawn)	-13	5	-1	8.3	-1
57	N=c1occ(C(=O)c2cc(F)ccc2O)cc1C(=O)NC1CCCCC1	5	0	30	0.4	-9
58	Nc1cc(=O)[nH]c(SCC(=O)Nc2ccc(Br)cc2)n1	-8	3	1	1.8	/

entry	rRNA inh HTS OD600	rRNA inh HTS RFP	ALR inh	Beta cell apopt	A1 inh
46	4	-4.4	/	0	1.0
47	/	/	0	5	1.0
48	1	-0.1	8	-3	0.8
49	13	-1.0	-25	-2	-0.5
50	4	3.4	-6	/	-0.4
51	/	/	-11	-9	0.1
52	/	/	-2	0	-0.2
53	/	/	-8	14	-0.7
54	4	-0.3	0	-5	-0.2
55	11	2.1	-8	-3	0.5
56	-2	0.9	-2	0	0.8
57	-11	2.8	7	/	-0.8
58	/	/	98*	0	-0.5

Only part of the results is shown; the hit share may differ from the screen's.
